Env fusion inh – blocks HIV Env-driven cell-cell fusion. inhibition, % at 12.3 µM. 360,000 compounds, 1.1% hits. AID 651610. HeLa-JRFL Env/CEM21 cell fusion, luciferase;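 active = mean replicate inhibition score of at least 50 and every replicate individually at or above 50; inconclusive = only one of the two criteria met; inactive = mean below 50 and not all replicates reaching 50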;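 also: 0% = plate neutral controls and 100% = maraviroc near 300 nM; one replicate is shown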
UUG fidelity – yeast start codon fidelity modulation. S. cerevisiae UUG-firefly luciferase reporter, luminescence/redox ratio. activity score, % at 18.7 µM. 350,000 compounds, 0.13% hits;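 active = replicate mean at a twofold rise or more, about +100% in these data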;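 also: firefly luciferase made from a UUG start codon reports start codon fidelity; reporter light over untreated wells divided by growth signal over untreated wells; some hits fall short of that in this replicate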
The depositor's hits bear a star; ? = inconclusive; [ ] = remark or other dose. An excerpt, so the mix of outcomes need not match the whole.

Start of the data: the first 11 records (preview)
The line under a structure holds: UUG fidelity	Env fusion inh
C[C@H]1CN([C@@H](C)CO)C(=O)Cc2cc(NC(=O)CCC(F)(F)F)ccc2O[C@H]1CN(C)Cc1ccc(C(=O)Nc2ccccc2N)cc1
→ -5	-92[16.7 µM]
C[C@@H]1CN([C@H](C)CO)C(=O)c2cccc(NC(=O)Nc3ccccc3)c2O[C@H]1CN(C)S(=O)(=O)c1ccccc1
→ 3	-12[16.7 µM]
C[C@@H]1CCCCO[C@H](CN(C)Cc2ccc(C(F)(F)F)cc2)[C@H](C)CN([C@H](C)CO)C(=O)c2cc(NC(=O)Nc3ccccc3)ccc2O1
→ 21	?
O=C(N[C@@H]1C=C[C@@H](CC(=O)N2CCOCC2)O[C@H]1CO)c1cccc(F)c1
→ 0	6[16.7 µM]
COCC(=O)Nc1ccc2c(c1)C(=O)N(C)[C@H]1CC[C@@H](CC(=O)OC)O[C@H]1CO2
→ -4	3[16.7 µM]
Cn1cnc(S(=O)(=O)N[C@@H]2C=C[C@@H](CC(=O)Nc3ccc(-c4ccccc4)cc3)O[C@@H]2CO)c1
→ -3	2[16.7 µM]
COC(=O)C(CC#Cc1ccc2c(c1)[C@]1(C(=O)N2)[C@H](C(=O)N2CCN(c3ncccn3)CC2)[C@H]2C(=O)O[C@H](c3ccccc3)[C@H](c3ccccc3)N2[C@@H]1c1ccc(OCCO)cc1)C(=O)OC
→ 13	-153[16.7 µM]
O=C(CN1CCOCC1)NCC[C@H]1CC[C@@H](NC(=O)Nc2ccc(C(F)(F)F)cc2)[C@H](CO)O1
→ 3	-8[16.7 µM]
O=C(NCC[C@@H]1CC[C@@H](NC(=O)Nc2cc(F)ccc2F)[C@H](CO)O1)Nc1ccc(Cl)cc1
→ 9	-8[16.7 µM]
CC(C)C#Cc1cnc2c(c1)C(=O)N([C@H](C)CO)C[C@H](C)[C@@H](CN(C)C(=O)c1cnccn1)O2
→ 0	-16[16.7 µM]
C[C@H]1CN([C@@H](C)CO)C(=O)c2cccc(N(C)C)c2O[C@H]1CN(C)Cc1ccncc1
→ 20	3[16.7 µM]

The whole of this part, from the start:
The line under a structure holds: UUG fidelity	Env fusion inh
C[C@H]1CN([C@@H](C)CO)C(=O)Cc2cc(NC(=O)CCC(F)(F)F)ccc2O[C@H]1CN(C)Cc1ccc(C(=O)Nc2ccccc2N)cc1
→ -5	-92[16.7 µM]
C[C@@H]1CN([C@H](C)CO)C(=O)c2cccc(NC(=O)Nc3ccccc3)c2O[C@H]1CN(C)S(=O)(=O)c1ccccc1
→ 3	-12[16.7 µM]
C[C@@H]1CCCCO[C@H](CN(C)Cc2ccc(C(F)(F)F)cc2)[C@H](C)CN([C@H](C)CO)C(=O)c2cc(NC(=O)Nc3ccccc3)ccc2O1
→ 21	?
O=C(N[C@@H]1C=C[C@@H](CC(=O)N2CCOCC2)O[C@H]1CO)c1cccc(F)c1
→ 0	6[16.7 µM]
COCC(=O)Nc1ccc2c(c1)C(=O)N(C)[C@H]1CC[C@@H](CC(=O)OC)O[C@H]1CO2
→ -4	3[16.7 µM]
Cn1cnc(S(=O)(=O)N[C@@H]2C=C[C@@H](CC(=O)Nc3ccc(-c4ccccc4)cc3)O[C@@H]2CO)c1
→ -3	2[16.7 µM]
COC(=O)C(CC#Cc1ccc2c(c1)[C@]1(C(=O)N2)[C@H](C(=O)N2CCN(c3ncccn3)CC2)[C@H]2C(=O)O[C@H](c3ccccc3)[C@H](c3ccccc3)N2[C@@H]1c1ccc(OCCO)cc1)C(=O)OC
→ 13	-153[16.7 µM]
O=C(CN1CCOCC1)NCC[C@H]1CC[C@@H](NC(=O)Nc2ccc(C(F)(F)F)cc2)[C@H](CO)O1
→ 3	-8[16.7 µM]
O=C(NCC[C@@H]1CC[C@@H](NC(=O)Nc2cc(F)ccc2F)[C@H](CO)O1)Nc1ccc(Cl)cc1
→ 9	-8[16.7 µM]
CC(C)C#Cc1cnc2c(c1)C(=O)N([C@H](C)CO)C[C@H](C)[C@@H](CN(C)C(=O)c1cnccn1)O2
→ 0	-16[16.7 µM]
C[C@H]1CN([C@@H](C)CO)C(=O)c2cccc(N(C)C)c2O[C@H]1CN(C)Cc1ccncc1
→ 20	3[16.7 µM]
C[C@@H]1CCCCO[C@H](CN(C)Cc2ccc(C(=O)O)cc2)[C@H](C)CN([C@@H](C)CO)C(=O)c2cc(NC(=O)NC3CCCCC3)ccc2O1
→ -1	12[16.7 µM]
CO[C@H]1O[C@H](CO)[C@@H](OC(=O)Nc2ccc3c(c2)OCO3)[C@H](OC(=O)Nc2ccccc2)[C@H]1OC(=O)Nc1ccccc1
→ -8	6[16.7 µM]
C[C@H]1CN([C@@H](C)CO)S(=O)(=O)c2ccc(-c3ccccc3)cc2O[C@H]1CN(C)CC1CC1
→ 36	19[16.7 µM]
CC(=O)N(C)C[C@@H]1Oc2cc(C#Cc3ccccn3)ccc2S(=O)(=O)N([C@@H](C)CO)C[C@@H]1C
→ 16	-16[16.7 µM]
O=S(=O)(NCC[C@@H]1CC[C@@H](NS(=O)(=O)c2cccc(Cl)c2)[C@@H](CO)O1)c1cccc(F)c1
→ 8	0[16.7 µM]
O=C(Nc1ccc(F)cc1)N[C@H]1C=C[C@H](CC(=O)N2CCOCC2)O[C@@H]1CO
→ -7	-23[16.7 µM]
C[C@H]1CN([C@@H](C)CO)C(=O)c2cc(C#CCN(C)C)cnc2O[C@H]1CN(C)C(=O)Cc1cccnc1
→ -12	5[16.7 µM]
C[C@@H]1CN([C@@H](C)CO)C(=O)c2cc(NC(=O)CCC(F)(F)F)ccc2O[C@@H](C)CCCCO[C@@H]1CN(C)C(=O)C1CCCCC1
→ 20	-5[16.7 µM]
CO[C@@H]1CN(C)C(=O)c2cc(NC(=O)NC(C)C)ccc2OC[C@@H](C)N(C(=O)NC(C)C)C[C@@H]1C
→ -12	2[16.7 µM]
C[C@@H]1CN([C@@H](C)CO)C(=O)c2cc(NC(=O)NC3CCCCC3)ccc2O[C@@H](C)CCCCO[C@@H]1CN(C)S(=O)(=O)c1cccs1
→ 0	-31[16.7 µM]
Cc1noc(C)c1NC(=O)N(C)C[C@@H]1OCCCC[C@H](C)Oc2ccc(NC(=O)Nc3cccc4ccccc34)cc2C(=O)N([C@@H](C)CO)C[C@H]1C
→ 1	8[16.7 µM]
C[C@@H]1CN([C@H](C)CO)C(=O)c2cccc(NC(=O)Nc3ccc4c(c3)OCO4)c2O[C@@H]1CN(C)C(=O)Nc1ccc(C(F)(F)F)cc1
→ 3	-16[16.7 µM]
O=C(C[C@@H]1CC[C@H]2NC[C@H](O)COC[C@@H]2O1)Nc1ccc(-c2ccccc2)cc1
→ -3	-19[16.7 µM]
Cc1noc(C)c1S(=O)(=O)Nc1ccc2c(c1)C(=O)N([C@@H](C)CO)C[C@@H](C)[C@H](CN(C)S(=O)(=O)c1cccs1)O2
→ 7	-26[16.7 µM]
C[C@H](CO)N1C[C@H](C)[C@@H](CN(C)C(=O)C2CC2)Oc2cc(-c3ccncc3)ccc2S1(=O)=O
→ -3	-16[16.7 µM]
C[C@@H]1CN([C@H](C)CO)C(=O)c2cccc(NS(=O)(=O)c3cn(C)cn3)c2O[C@@H]1CN(C)S(=O)(=O)c1cccs1
→ -12	-21[16.7 µM]
Cc1ccc(S(=O)(=O)N[C@@H]2CC[C@H](CCNC(=O)CN3CCOCC3)O[C@H]2CO)cc1
→ -5	-19[16.7 µM]
O=C(N[C@@H]1CC[C@H](CCn2cc(C3CC3)nn2)O[C@H]1CO)c1cccnc1
→ -2	-10[16.7 µM]
CCCNC(=O)COc1ccc(C=O)cc1
→ -13	-11[16.7 µM]
C[C@@H]1CCCCO[C@H](CN(C)C(=O)C2CCCCC2)[C@H](C)CN([C@H](C)CO)C(=O)c2cc(NS(=O)(=O)c3ccc(Cl)cc3)ccc2O1
→ 3	-28[16.7 µM]
Cc1noc(C)c1S(=O)(=O)Nc1ccc2c(c1)C(=O)N([C@H](C)CO)C[C@@H](C)[C@H](CN(C)S(=O)(=O)c1ccc(F)cc1)OCCCC[C@@H](C)O2
→ -4	-28[16.7 µM]
Cc1noc(C)c1NC(=O)Nc1ccc2c(c1)C(=O)N([C@@H](C)CO)C[C@H](C)[C@@H](CN(C)C(=O)Nc1ccc(F)cc1)OCCCC[C@@H](C)O2
→ 24	-51[16.7 µM]
COc1cccc(S(=O)(=O)Nc2ccc3c(c2)OC[C@H](C)NC[C@H](C)[C@H](OC)CN(C)C3=O)c1
→ 6	16[16.7 µM]
CCNC(=O)C[C@@H]1CC[C@@H]2[C@H](COc3ccc(NC(=O)c4ccc(C(F)(F)F)cc4)cc3C(=O)N2C)O1
→ 4	3[16.7 µM]
COCC#Cc1ccc2c(c1)O[C@@H](CN(C)S(=O)(=O)c1ccc(F)cc1)[C@@H](C)CN([C@H](C)CO)S2(=O)=O
→ -2	-5[16.7 µM]
C[C@@H]1CCCCO[C@@H](CN(C)Cc2ccc(C(F)(F)F)cc2)[C@H](C)CN([C@@H](C)CO)C(=O)c2cc(NC(=O)CCC(F)(F)F)ccc2O1
→ 4	-16[16.7 µM]
C[C@H](CO)N1C[C@H](C)[C@H](CN(C)C(=O)Nc2ccc(F)cc2)OCCCC[C@H](C)Oc2ccc(NC(=O)Nc3ccc4c(c3)OCO4)cc2C1=O
→ -6	-39[16.7 µM]
CN(C)C(=O)C[C@@H]1CC[C@@H]2[C@H](COc3ccc(NC(=O)c4cnccn4)cc3C(=O)N2C)O1
→ 0	7[16.7 µM]
O=C(C[C@H]1CC[C@@H]2[C@H](COC[C@H](O)CN2Cc2cc(F)cc(F)c2)O1)NC1CCCC1
→ -22	7[16.7 µM]
CCCNC(=O)N[C@@H]1CC[C@H](CC(=O)NCCc2ccccc2)O[C@@H]1CO
→ -16	11[16.7 µM]
C[C@H]1CCCCO[C@H](CN(C)C(=O)Nc2ccc3c(c2)OCO3)[C@@H](C)CN([C@@H](C)CO)C(=O)c2cc(NS(=O)(=O)c3cn(C)cn3)ccc2O1
→ -6	1[16.7 µM]
O=C(C[C@@H]1C[C@H]2c3cc(NC(=O)Nc4ccccc4)ccc3O[C@H]2[C@H](CO)O1)NC1CCCCC1
→ 8	2[16.7 µM]
O=C(C[C@@H]1C[C@H]2c3cc(NC(=O)Nc4ccccc4F)ccc3O[C@H]2[C@H](CO)O1)NCc1ccc(Oc2ccccc2)cc1
→ -12	-18[16.7 µM]
C[C@H](O)C#Cc1cnc2c(c1)C(=O)N([C@H](C)CO)C[C@@H](C)[C@H](CN(C)C(=O)Cc1ccccn1)O2
→ -5	-16[16.7 µM]
CN1C(=O)c2cc(NC(=O)c3ccccc3)ccc2OC[C@@H]2O[C@@H](CC(=O)O)CC[C@H]21
→ 2	18[16.7 µM]
Cc1noc(C)c1NC(=O)N(C)C[C@@H]1OCCCC[C@@H](C)Oc2ccc(NC(=O)NC(C)C)cc2C(=O)N([C@H](C)CO)C[C@@H]1C
→ 5	-32[16.7 µM]
CC(=O)Nc1ccc2c(c1)C(=O)N(C)[C@H]1CC[C@@H](CC(=O)NCc3ccc(F)cc3)O[C@@H]1CO2
→ -7	0[16.7 µM]
C[C@@H]1CN([C@@H](C)CO)C(=O)Cc2cc(NC(=O)Nc3cccc4ccccc34)ccc2O[C@H]1CN(C)C(=O)NC1CCCCC1
→ 1	-11[16.7 µM]
C[C@H](CO)N1C[C@H](C)[C@@H](CN(C)S(=O)(=O)c2ccc(Cl)cc2)OCCCC[C@H](C)Oc2ccc(NC(=O)c3ccccc3)cc2C1=O
→ -9	0[16.7 µM]
C[C@H](CO)N1C[C@H](C)[C@@H](CN(C)S(C)(=O)=O)Oc2ncc(-c3cccnc3)cc2C1=O
→ -2	3[16.7 µM]
C[C@H]1CN([C@@H](C)CO)S(=O)(=O)c2ccc(-c3cccc(C#N)c3)cc2O[C@@H]1CN(C)C(=O)C1CC1
→ 4	21[16.7 µM]
COc1ccc(NC(=O)Nc2ccc3c(c2)C(=O)N([C@@H](C)CO)C[C@H](C)[C@@H](CN(C)C(=O)CCC(F)(F)F)OCCCC[C@@H](C)O3)cc1
→ -2	7[16.7 µM]
C[C@H](CO)N1C[C@H](C)[C@H](CN(C)C(=O)NC2CCCCC2)Oc2ccc(NC(=O)C3CC3)cc2C1=O
→ -1	-16[16.7 µM]
C[C@@H]1CN([C@H](C)CO)C(=O)c2cc(-c3cccc(C#N)c3)cnc2O[C@H]1CN(C)Cc1cncnc1
→ -7	-22[16.7 µM]
C[C@H](CO)N1C[C@H](C)[C@@H](CN(C)Cc2ccccc2)OCCCC[C@H](C)Oc2ccc(NC(=O)Nc3ccc(F)cc3)cc2C1=O
→ 19	-20[16.7 µM]
O=C(C[C@H]1CC[C@H](NC(=O)c2ccc(F)cc2)[C@H](CO)O1)NCCc1ccncc1
→ -17	7[16.7 µM]
C[C@H](CO)N1C[C@H](C)[C@@H](CN(C)C(=O)Nc2ccc3c(c2)OCO3)OCCCC[C@H](C)Oc2ccc(NC(=O)CCCN(C)C)cc2C1=O
→ -1	-9[16.7 µM]
CCCNC(=O)N1C[C@@H](C)[C@H](OC)CN(C)C(=O)c2cc(NS(=O)(=O)CC)ccc2OC[C@@H]1C
→ -4	-19[16.7 µM]
C[C@@H]1CN([C@@H](C)CO)C(=O)c2cccc(NC(=O)c3ccncc3)c2O[C@H]1CN(C)Cc1ccccc1
→ -7	41[16.7 µM]
COc1ccc(S(=O)(=O)N2C[C@H](O)COC[C@H]3O[C@H](CC(=O)NCc4ccc(Cl)c(Cl)c4)CC[C@@H]32)cc1
→ 14	13[16.7 µM]

Source: PubChem (Broad Institute)
